Screens as filed in PubChem.
hNpr1 antagonist – Natriuretic polypeptide receptor (hNpr1) antagonism - Primary qHTS | AID 1347048, 2019 | HEK293 hNpr1 GloSensor cGMP, ANP-stimulated luminescence | hit rate 1.6% among 76,000 | Potency, µM (highest dose often 46.3 µM), inactives show top-dose activity change, negative = inhibition, usual class: inhibitors; active = well fitted inhibition curve with a large enough effect; inconclusive = small, poorly fitted or top-dose-only effect; inactive = no such curve, though single readings can be large or run the other way;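 note: nearly all actives have a fitted effect of over 60% in size; nearly all hits also lower the signal before the agonist is added; a reference antagonist and vehicle were the controls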
Target sequence (P16066 whole entry, looked up): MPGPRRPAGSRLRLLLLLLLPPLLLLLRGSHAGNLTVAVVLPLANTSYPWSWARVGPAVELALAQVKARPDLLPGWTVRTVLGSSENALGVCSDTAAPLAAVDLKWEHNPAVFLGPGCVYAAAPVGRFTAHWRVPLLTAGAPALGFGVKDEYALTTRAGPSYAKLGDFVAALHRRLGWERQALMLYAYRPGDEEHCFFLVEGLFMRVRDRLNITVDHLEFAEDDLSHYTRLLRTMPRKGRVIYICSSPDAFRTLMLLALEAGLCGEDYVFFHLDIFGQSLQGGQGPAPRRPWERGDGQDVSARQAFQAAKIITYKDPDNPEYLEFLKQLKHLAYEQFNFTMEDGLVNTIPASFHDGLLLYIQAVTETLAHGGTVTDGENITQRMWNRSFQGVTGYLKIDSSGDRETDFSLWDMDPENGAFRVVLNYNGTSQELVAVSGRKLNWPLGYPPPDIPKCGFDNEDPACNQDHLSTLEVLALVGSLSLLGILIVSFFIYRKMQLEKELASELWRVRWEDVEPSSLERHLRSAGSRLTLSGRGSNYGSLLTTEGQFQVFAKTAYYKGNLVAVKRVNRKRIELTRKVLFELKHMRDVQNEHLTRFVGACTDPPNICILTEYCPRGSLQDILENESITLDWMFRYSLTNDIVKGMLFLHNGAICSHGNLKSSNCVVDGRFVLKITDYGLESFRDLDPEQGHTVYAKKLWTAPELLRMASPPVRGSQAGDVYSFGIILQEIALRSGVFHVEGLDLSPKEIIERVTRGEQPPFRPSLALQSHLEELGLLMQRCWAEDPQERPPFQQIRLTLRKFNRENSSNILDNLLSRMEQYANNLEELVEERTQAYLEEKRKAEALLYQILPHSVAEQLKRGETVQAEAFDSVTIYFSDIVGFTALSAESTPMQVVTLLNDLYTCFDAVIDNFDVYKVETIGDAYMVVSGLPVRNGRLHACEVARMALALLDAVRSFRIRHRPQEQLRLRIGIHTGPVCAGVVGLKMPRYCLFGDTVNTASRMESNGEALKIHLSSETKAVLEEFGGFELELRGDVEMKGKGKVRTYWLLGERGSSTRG
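Compound pre-incubated 30 min at room temperature on GloSensor-loaded HEK293 cells stably carrying hNpr1 and the pGS-40F cGMP biosensor. Stimulation uses hNppA at 0.1 nM final; luminescence is taken at baseline and 20 min post-agonist.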
Active calls of the source: *; ? = inconclusive; [ ] = dose if it differs, or a comment. % is set by controls: 0 for no effect and ±100 for the full control effect; potency is the fitted concentration of half-maximal effect.

SMILES | hNpr1 antagonist
CC1(C)[C@H]2CC[C@@H](CNC(=O)c3ccc(F)cc3)[C@@H]1C2 | 4%[70.6 µM]
Cc1ccc(C(=O)N2[C@@H]3CC[C@H]2CC(NC(=O)c2ccncc2)C3)cn1 (stereo partly specified) | 4%
CN(Cc1cnc2ccccc2n1)C(=O)Cc1c[nH]c(=O)n(C)c1=O | 1%
CCCNC(=O)N[C@H]1C[C@@](O)(C(=O)N[C@H](C)C(N)=O)C[C@@H](O)[C@@H]1O | 7%[70.6 µM]
CCn1ccc2oc(C)c(C(=O)NCc3ccccc3C)c2c1=O | 2%
CC(C)CCCC1CN(C(=O)CN2CCCC2=O)CCO1 (stereo unspecified) | 0%
c1cc(-c2nc(C3CCNC3)no2)ccn1 (stereo unspecified) | 0%
COc1cc(F)ccc1-c1cc(-c2c(C)noc2C)cc2c1C(=O)N(C)C2 | 0%[70.6 µM]
COc1ccccc1C(=O)N1CCC(CCOc2ccc(C)cc2)C1 (stereo unspecified) | ?
Cc1ccc(C2=NC3(CCN(C(=O)Cc4ccc(F)cc4)CC3)ON2)cc1 | -7%
Cn1nnnc1C1CCCN(C(=O)c2ccccc2F)C1 (stereo unspecified) | 12%
CC(C)(C)c1cc(CC2(NCc3ccc(OC(F)(F)F)cc3)COC2)no1 | 4%[70.6 µM]
O=C1CCN(S(=O)(=O)c2ccc3c(c2)OCCO3)CCCC(CO)CCN1 (stereo unspecified) | -1%
Cc1ccc2c(C(=O)N3CCN(CC(C)C)CC3)cc(NC(=O)C3CCC3)cc2n1 | 3%
N#Cc1ccccc1CN1CC[C@@H]2C(=O)NCCCCCCN(Cc3ccncc3)[C@@H]2C1 | -11%
CCc1ccc(-c2nc(C3CC(=O)N(c4ccc(Cl)cc4)C3)no2)cc1 (stereo unspecified) | 0%
O=C(Nc1cccc(-n2cccn2)c1)C1CCCN1S(=O)(=O)c1cccs1 (stereo unspecified) | 0%
COc1ccc(NC(=O)Cn2ccn3nc(-c4ccc(F)cc4)c(CO)c3c2=O)c(OC)c1 | -3%
CCCN1C(=O)Cc2ccccc2C1C(=O)O (stereo unspecified) | 1%
CC(=O)c1ccc(NC(=O)CN2C(=O)NC3(CCCCC3)C2=O)cc1 | 1%
COc1cccc(CC(=O)NC2CCN(c3cn[nH]c(=O)c3)CC2)c1 | 5%
COc1cc(NC(=O)c2cc3n(n2)CC(c2ccc(Br)cc2)OC3)cc(OC)c1OC (stereo unspecified) | ?
COc1ccc(C(=O)NCC2CCOC2)cc1OC1CCN(C(C)C)CC1 (stereo unspecified) | 11%
CSCCC(=O)N1CCC2(CCCN(Cc3cccnc3)C2=O)C1 (stereo unspecified) | 3%
CCN(CC)C(=O)CC[C@@H]1CNC(=O)[C@@H]2C[C@H](NCc3ccc(F)cc3)CN12 | 6%[70.6 µM]
CCOc1ccc(C(=O)Nc2ccc3ncnc(N4CCCCC4)c3c2)cc1 | -3%
O=C(c1ccco1)N1CCc2nn(Cc3ccccc3)c(=O)n2CC1 | 7%
COc1ccc(CN2CCC(C3CCN(S(C)(=O)=O)CC3)C2)cc1OC (stereo unspecified) | 5%
CCNC(=O)N1CCOc2ccc(CCC(=O)NC3CCS(=O)(=O)C3)cc2C1 (stereo unspecified) | 3%
CC(C)NC(=O)c1nc(-c2ccc(F)cc2)c2ccccn12 | 4%[70.6 µM]
COc1ccc(-c2ccc3nc(-c4ccc(Cl)cc4)oc3c2)c(OC)c1OC | -6%
O=C(NC1CCCc2c1[nH]c1ccc(Cl)cc21)c1ccco1 (stereo unspecified) | -8%
COCc1nc(C2CCN(C(=O)COc3ccc(F)cc3)C2)no1 (stereo unspecified) | -8%
Cn1ccc2c(C(=O)NCCc3cnc[nH]3)nc(-c3cccc(C(F)(F)F)c3)cc21 | -6%[70.6 µM]
CCNC(=O)[C@@H]1C[C@H](n2cc(CN(C)C(=O)NC3CCCCC3)nn2)CN1 | 9%
CC(Nc1ccc(-c2nc(CCCc3ccccc3)no2)cn1)c1cnn(C)c1 (stereo unspecified) | -24%
COc1cccc(CC(=O)N2CCCCCCNC(=O)[C@H]3CCCC[C@H]32)c1 | -24%
Cc1cccc(CN2CCCOCCNC(=O)[C@@H]3CCCC[C@@H]32)c1 | 0%
CCOC(=O)C1CCN(C(=O)c2coc(COc3cccc(F)c3)n2)CC1 | 9%
COC1CN(c2cccc(F)c2)C12CCN(C1CCOCC1)CC2 (stereo unspecified) | -2%
Cn1c2c(c3cc(F)ccc31)CN(C(=O)Nc1ccc(Cl)cc1)CC2 | -15%
O=C(Nc1ccc(Br)c(F)c1)c1cnc(-c2ccccc2)nc1-c1ccncc1 | ?
Cn1nc(C(=O)N2CCCC(CNC(=O)c3ccc(-c4ccccc4)cc3)C2)ccc1=O (stereo unspecified) | -6%
O=C1CC(NCc2cc(F)ccc2-n2cccn2)CN1Cc1cccc(F)c1 (stereo unspecified) | 8%
CNC(=O)[C@H]1C[C@H](Oc2ccccc2)CN1C(=O)CCc1ccccc1 | -16%
COCC(=O)N[C@H]1CC[C@]2(C)CC[C@@H]([C@H](C)C(=O)NCc3ccccn3)[C@H](O)[C@H]2[C@@H]1C | -2%[70.6 µM]
Cc1cnc(-c2cccnc2)n1CC1CCN(C(=O)Cc2ccccc2)CC1 | -1%
Cc1ccc(C2Cn3nnc(C(=O)N4CCN(C(=O)c5ccccc5F)CC4)c3CO2)cc1 (stereo unspecified) | ?
COc1ccc(C(=O)Nc2ccc3n(c2=O)C[C@H]2C[C@@H]3CN(C(=O)CCCC(=O)O)C2)cc1 | 4%
CCOc1ccccc1CN1CCCN(S(=O)(=O)c2ccccc2)CCC(=O)NCC1 | -8%
CN(C)c1cc(=O)c2ccnc(Nc3cccnc3)c2o1 | 2%[70.6 µM]
CCc1cccc(NC(=O)C2Cn3cccc3C(=O)N2C)c1 (stereo unspecified) | -10%
N#Cc1cccc(NC(=O)N2C[C@@H]3C[C@H](C2)c2ccc(-c4ccc(OC(F)(F)F)cc4)c(=O)n2C3)c1 | -3%
O=C(c1ccc(Cl)nc1)N1CCC(N2CC3CCCN3C2=O)CC1 (stereo unspecified) | 1%
COc1cccc(N2CCN(C(=O)[C@H]3CCC[C@H]3NC(=O)c3ccc(OC)nc3)CC2)c1 | -2%
CN(C)C(=O)CC1=C2CCCCC2N(C)C1=O (stereo unspecified) | -10%
Cc1ccc(CN2C(=O)[C@@H]3C[C@@H](O)CN3C3(CN(C4CCC4)C3)C2=O)o1 | 9%[70.6 µM]
O=C(NC1CCN(c2cc(-c3ccc(F)cc3)[nH]n2)C1)c1cc(Cl)ccc1F (stereo unspecified) | -18%
O=C(NCCN1CCCCC1)C1CCc2ncc(-c3ccsc3)n2C1 (stereo unspecified) | 3%
COCCN1C(=O)c2ccccc2C(C(=O)Nc2ccc3c(c2)OCO3)C12CCCC2 (stereo unspecified) | -1%

Later entries.
SMILES | hNpr1 antagonist
CN1C(=O)[C@@H]2C[C@@H](CN2Cc2ccc3c(c2)OCO3)Oc2ccccc21 | -18%[70.6 µM]
O[C@H]1[C@H](NCc2ccco2)[C@H]2CO[C@H](O2)[C@@H]1N1CCC(Cc2ccccc2)CC1 | -1%[70.6 µM]
CCC1(C(=O)O)CCCN(Cc2ccccc2)C1 (stereo unspecified) | 15%
CCCN(CC1CCOC1)C(=O)Nc1ccccc1 (stereo unspecified) | -1%
O=[S+]1([O-])NCC2(CCCN(Cc3ccc(F)cc3)C2)Nc2ccccc21 (stereo unspecified) | 10%
CCn1nccc1C(=O)N1CCCC(c2nn(C)c(=O)n2C(C)C)C1 (stereo unspecified) | -2%
Cc1cnc(-c2ccccc2)n1CCNC(=O)c1cn(C)cn1 | 0%
CCCc1noc(-c2cccn3c(CNC(=O)CCc4ccccc4)nnc23)n1 | -14%
CCc1nc2c(c(-c3ccc(Cl)cc3)n1)CCN(Cc1cc(C)on1)CC2 | 0%
Cc1ccc(C(=O)NCCn2ccn3nc(-c4ccc(F)cc4)cc3c2=O)s1 | -28%
CN1CCN(C(=O)CC2CCCN(c3cnn(CC4CC4)c(=O)c3)C2)CC1 (stereo unspecified) | 3%
Cn1ccnc1C(O)C1CCN(C(=O)Cc2c[nH]c(=O)n(C)c2=O)CC1 (stereo unspecified) | 2%
COc1cccc(N2CC(C(=O)NCc3cccc(F)c3)NC2=O)c1 (stereo unspecified) | -15%[70.6 µM]
COC(=O)C1=C(C)N=C2SC=C(CC(=O)NCc3ccco3)N2C1c1cccc(OC)c1 (stereo unspecified) | -25%
O=C1CCN(S(=O)(=O)c2ccccc2)CCCC(CO)CCN1 (stereo unspecified) | 2%
Cc1ccncc1C(=O)N[C@@H]1CN(Cc2ccccc2)C[C@H]1CN(C)C | 3%
COc1cccc(Cn2c(=O)c3ccnn3c3ccc(C(=O)O)cc32)c1 | -8%
CCCn1cc(C2CCN(S(=O)(=O)c3c(C)cc(C)cc3C)CC2)c2ccccc21 | 1%
O=C(CCC1CCCN(Cc2cccn2-c2cccnc2)C1)Nc1ccccc1F (stereo unspecified) | -4%
Cc1nc([C@@H]2CN(C(=O)c3nn(C)c4ccccc34)C[C@H]2C(N)=O)n[nH]1 | 1%
COCCN1CCC2(CCC1=O)CN(Cc1cccc(Cl)c1)CCN2C (stereo unspecified) | 6%
COc1ccc(CCN2C(=O)O[C@@H]3CN(c4nc(OC)cc(OC)n4)C[C@@H]32)cc1 | -14%
CCn1cc(CN2CCC3(CCC(=O)N(C(C)C(=O)O)C3)CC2)cn1 (stereo unspecified) | -9%
O=C1CCCCCN1CCC(=O)N1CCCC(Nc2ccc(F)cc2)C1 (stereo unspecified) | -2%
CN1C[C@@H](NC(=O)NCc2ccccc2)C[C@H]1c1nc(-c2cncnc2)no1 | 3%[70.6 µM]
CC1(C)C(=O)N(Cc2ccccc2F)[C@H]2CN(Cc3ccc4c(c3)CCO4)C[C@H]2[S+]1(=O)[O-] | -3%
CC(C)c1noc(C2Cc3ccccc3N2C(=O)CCn2cnnn2)n1 (stereo unspecified) | -2%
COc1ccc(CNC(=O)[C@@H]2CCC[C@@H](NCC3CC3)CN(C)C(=O)C2)cc1 | 5%[70.6 µM]
CC(=O)Nc1ccc(CC(=O)N2CCC(C)(c3noc(C)n3)CC2)cc1 | -2%
COCCn1cnnc1C(C)Nc1nc(C(C)C)nc2c1cnn2C (stereo unspecified) | 3%
COc1ccccc1CNC(=O)C1CCN(C(=O)c2ncn3c2COC(c2ccccc2)C3)CC1 (stereo unspecified) | -3%
COCCN1CCCCCC(O)c2cc(C(=O)N3CC=C(c4ccccc4)CC3)ccc21 (stereo unspecified) | 2%
C[C@]1(CO)[C@H]2Cc3sc(NC(=O)c4ccnc(Cl)c4)nc3[C@@H](CC(=O)NCc3ccco3)[C@]2(C)CC[C@H]1O | 4%
COc1ccc(C(=O)NC[C@H]2O[C@H](Cc3cc(-c4ccccc4)on3)CC[C@@H]2O)cc1 | -15%[70.6 µM]
CN1CC2(CCN(S(=O)(=O)c3ccc(C#N)cc3)CC2)CC1C(=O)N1CCOCC1 (stereo unspecified) | 1%
O=C1[C@H]2CN(Cc3ccc(Cl)c(F)c3)C[C@H]2C(=O)N1CCc1ccccc1 | 4%
O=C(C1CC(=O)N(c2n[nH]c3cccc(F)c23)C1)N1CCCC1 (stereo unspecified) | -2%
O=C(c1cccc(F)c1)N1CCOC[C@H](Oc2ccccc2)C1 | -14%[70.6 µM]
Cn1nc(-c2nncn2Cc2ccccc2)c2c1CCN(C(=O)c1ccncc1)C2 | 2%
CC1=C[C@@H](CN)[C@H](C(C)C)C[C@H]1Cc1nc2ccc(F)cc2[nH]1 | -7%[70.6 µM]
COc1ccc(C(=O)N2CCC(N3C(=O)[C@H](OC)[C@@H]3c3ccncc3)CC2)c(OC)n1 | 0%
OC1CC([C@H](NC2CSCCSC2)c2ccc3c(c2)CCO3)C1 (stereo partly specified) | -2%
O=C(Cc1ccc(F)cc1)N1CCOCC2(CN(Cc3ccccc3)C2)C1 | 0%[70.6 µM]
CC1(C(=O)NCc2ccncc2)CCCc2cnc(NCc3ccccc3)nc21 (stereo unspecified) | -2%[70.6 µM]

This is a subset; rates above refer to the full screens.
